# FGF22 binding: binders of recombinant human FGF22 by thermal shift. calls only at 9.99 µM. actives 1.5% (n = 340,000). SYPRO orange fluorescence; percent of sucrose octasulfate shift, DMSO zero. Q9HCT0;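 active = melting point raised past a set limit in the mean and every replicate; three in four hits are not shown here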
# Target sequence (Q9HCT0 whole entry, looked up): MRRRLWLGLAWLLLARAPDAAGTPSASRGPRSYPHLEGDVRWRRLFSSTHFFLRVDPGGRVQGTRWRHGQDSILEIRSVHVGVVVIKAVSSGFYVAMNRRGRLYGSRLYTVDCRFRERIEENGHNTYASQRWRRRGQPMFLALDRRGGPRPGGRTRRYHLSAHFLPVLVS
# Calls only; i = inactive; + = active, no number. An excerpt. The share of hits here may be higher or lower than overall.
FGF22 binding	Compound
i	C[C@@H]1CN([C@H](C)CO)C(=O)c2cc(NC(=O)NC3CCCCC3)ccc2O[C@H]1CN(C)Cc1ccc2c(c1)OCO2
i	C[C@@H]1CN([C@H](C)CO)C(=O)Cc2cc(NS(=O)(=O)c3cccs3)ccc2O[C@@H]1CN(C)Cc1ccc(-c2ccccc2)cc1
i	COc1cccc(NC(=O)C[C@H]2CC[C@@H]3[C@@H](COc4ccc(NC(=O)C5CCCC5)cc4C(=O)N3C)O2)c1
i	O=C(Nc1nccs1)[C@H]1[C@H](CO)[C@H]2Cn3c(cccc3=O)[C@H]2N1C(=O)C1CCC1
i	CC(C)NC(=O)Nc1ccc2c(c1)C(=O)N([C@@H](C)CO)C[C@H](C)[C@H](CN(C)C)O2
i	COc1cccc(S(=O)(=O)Nc2ccc3c(c2)[C@@H]2C[C@@H](CC(=O)NCc4ccccc4F)O[C@H](CO)[C@@H]2O3)c1
i	CCNC(=O)C[C@@H]1CC[C@H]2[C@H](COc3ccc(NS(=O)(=O)c4ccccc4C)cc3C(=O)N2C)O1
i	Cc1cc(Br)cn2c(Cc3ccccc3C(F)(F)F)c(-c3ccco3)nc12
i	Cc1ccccc1-c1ccc([C@H]2[C@@H](CO)N3C(=O)CN(C(=O)Cc4ccccn4)C[C@@H]23)cc1
i	C[C@H]1CN([C@@H](C)CO)C(=O)c2cc(C3=CCCCC3)cnc2O[C@H]1CN(C)C(=O)Nc1ccc(F)cc1
i	O=C(NC[C@H]1[C@H](c2ccccc2)[C@@H](CO)N1Cc1cccnc1)c1ccccn1
i	CCCC#Cc1ccc2c(c1)O[C@@H](CN(C)S(=O)(=O)c1cccc(F)c1)[C@H](C)CN([C@@H](C)CO)S2(=O)=O
i	CC(C)NC(=O)NCC[C@H]1CC[C@@H](NC(=O)CCN2CCCCC2)[C@H](CO)O1
i	COC(=O)[C@H](Cc1ccccc1)N1CC(N2CCCC2)CS1(=O)=O (stereo partly drawn)
i	COc1cccc(NC(=O)N(C)C[C@H]2Oc3ncc(C#Cc4ccccc4)cc3C(=O)N([C@@H](C)CO)C[C@H]2C)c1
i	C[C@@H]1CCCCO[C@@H](CN(C)Cc2ccncc2)[C@H](C)CN([C@H](C)CO)C(=O)c2cc(NS(=O)(=O)c3cn(C)cn3)ccc2O1
i	C[C@@H]1CN([C@@H](C)CO)C(=O)c2ccccc2-c2ccccc2CO[C@@H]1CN(C)CC1CC1
i	C[C@@H]1CN([C@@H](C)CO)C(=O)c2cc(NS(=O)(=O)c3cn(C)cn3)ccc2O[C@@H](C)CCCCO[C@@H]1CN(C)C(=O)Nc1ccc(F)cc1
i	CCCN1CCCCC(NC(C)=O)C1=O (stereo not drawn)
i	CCCNC(=O)C[C@@H]1C[C@@H]2c3cc(NC(=O)c4ccc5c(c4)OCO5)ccc3O[C@@H]2[C@@H](CO)O1
i	CCS(=O)(=O)N[C@H]1CC[C@@H](CC(=O)Nc2ccc(-c3ccccc3)cc2)O[C@@H]1CO
i	CCCC(=O)Nc1ccc2c(c1)OC[C@H](C)N(Cc1cncnc1)C[C@@H](C)[C@H](OC)CN(C)C2=O
+	COc1ccc(NC(=O)Nc2ccc3c(c2)C(=O)N([C@@H](C)CO)C[C@H](C)[C@H](CN(C)C(=O)c2ccccc2)OCCCC[C@H](C)O3)cc1
i	C[C@@H]1CCCCO[C@H](CN(C)C(=O)NC2CCCCC2)[C@@H](C)CN([C@H](C)CO)C(=O)c2cc(NC(=O)C3CCCCC3)ccc2O1
i	O=C(NCC[C@@H]1CC[C@@H](NS(=O)(=O)c2cccc(F)c2)[C@H](CO)O1)Nc1cc(F)ccc1F

FGF22 binding	Compound
i	C[C@@H]1CCCCO[C@H](CN(C)CC2CC2)[C@@H](C)CN([C@H](C)CO)C(=O)c2cc(NC(=O)Cc3ccccc3)ccc2O1
i	Cc1ccc(S(=O)(=O)N(C)C[C@H]2Oc3ccc(NS(C)(=O)=O)cc3CC(=O)N([C@@H](C)CO)C[C@H]2C)cc1
i	COc1ccc(-c2ccc3c(c2)O[C@@H](CN(C)CC2CCOCC2)[C@H](C)CN([C@H](C)CO)S3(=O)=O)cc1
i	O=C(C[C@@H]1CC[C@H](NC(=O)Nc2ccc3c(c2)OCO3)[C@H](CO)O1)NCc1ccc2c(c1)OCO2
i	C[C@H]1CN([C@@H](C)CO)C(=O)c2cc(NS(=O)(=O)c3cn(C)cn3)ccc2O[C@H]1CN(C)S(=O)(=O)c1ccc(Cl)cc1
i	C/C=C/c1ccc2c(c1)O[C@@H](CN(C)CC1CCCC1)[C@H](C)CN([C@@H](C)CO)S2(=O)=O
i	CCNC(=O)[C@H]1[C@H](CO)[C@H]2Cn3c(ccc(-c4ccncc4)c3=O)[C@H]2N1Cc1cc(F)ccc1F
i	C[C@@H]1CN([C@H](C)CO)S(=O)(=O)c2ccc(C#CCC3CCCC3)cc2O[C@H]1CN(C)C(=O)c1ccccn1
i	O=C(NCC1CC1)[C@@H]1[C@@H](CO)[C@@H]2Cn3c(cccc3=O)[C@H]1N2C(=O)c1cccnc1
i	CCCNC(=O)C[C@H]1CC[C@H]2[C@@H](COc3ccc(NC(=O)c4ccc(OC)cc4)cc3C(=O)N2C)O1
i	C[C@H]1CN([C@@H](C)CO)C(=O)c2cccc(NC(=O)NC3CCCCC3)c2O[C@@H]1CN(C)C(=O)Nc1cccc2ccccc12
i	O=C(N[C@H]1CC[C@@H](CCNC(=O)C2CCC2)O[C@@H]1CO)c1ccncc1
i	C[C@@H]1CCCCO[C@H](CN(C)C(=O)c2ccncc2)[C@@H](C)CN([C@H](C)CO)C(=O)c2cc(NC(=O)CCCCCC(=O)Nc3ccccc3N)ccc2O1
i	COc1ccccc1NC(=O)N1[C@H](CO)[C@H](c2ccccc2)[C@@H]1C#N
i	CCCNC(=O)N[C@H]1CC[C@@H](CC(=O)NC2CCC2)O[C@@H]1CO
i	CN(C)C(=O)C[C@H]1CC[C@H]2[C@@H](COc3ccc(NC(=O)C4CCCCC4)cc3C(=O)N2C)O1
i	C[C@@H]1CN([C@H](C)CO)C(=O)Cc2cc(NS(=O)(=O)c3cn(C)cn3)ccc2O[C@H]1CN(C)C(=O)Nc1ccc(F)cc1
i	COCC(=O)N1[C@@H]2Cn3c(ccc(/C=C/c4ccccc4)c3=O)[C@H]1[C@@H](C(=O)N1CCCCC1)[C@@H]2CO
i	C[C@@H]1CN([C@@H](C)CO)C(=O)c2cc(NC(=O)Nc3ccccc3)ccc2O[C@@H](C)CCCCO[C@@H]1CN(C)C(=O)Nc1ccc2c(c1)OCO2
i	O=C(C[C@H]1CC[C@@H]2[C@H](COC[C@H](O)CN2C(=O)c2cnccn2)O1)NCc1ccc(F)cc1
i	COc1cccc(-c2ccc([C@@H]3[C@@H](C#N)N(C(=O)Cc4ccccc4)[C@@H]3CO)cc2)c1
i	C[C@H](CO)N1C[C@H](C)[C@@H](CN(C)Cc2ccc(Cl)c(Cl)c2)Oc2ccc(NC(=O)c3ccncc3)cc2CC1=O
i	O=C(C[C@H]1CC[C@@H]2NC[C@H](O)COC[C@H]2O1)NCc1ccc(Oc2ccccc2)cc1
i	C[C@@H]1CN([C@@H](C)CO)C(=O)c2cc(-c3cccc(C#N)c3)cnc2O[C@@H]1CN(C)C
i	CC(C)NC(=O)N(C)C[C@H]1Oc2cc(C#Cc3ccc(F)cc3)ccc2S(=O)(=O)N([C@H](C)CO)C[C@@H]1C

FGF22 binding	Compound
i	Cc1cc(C(=O)Nc2ccc3c(c2)C(=O)N(C)[C@H]2CC[C@H](CC(=O)O)O[C@@H]2CO3)no1
i	CCCC#Cc1cnc2c(c1)C(=O)N([C@H](C)CO)C[C@@H](C)[C@@H](CN(C)C(=O)C1CCC1)O2
i	COCC(=O)N(C)C[C@@H]1Oc2ncc(C#Cc3cccnc3)cc2C(=O)N([C@@H](C)CO)C[C@@H]1C
i	COCC#Cc1ccc2c(c1)O[C@@H](CN(C)C(=O)CC1CC1)[C@@H](C)CN([C@@H](C)CO)S2(=O)=O
i	O=C(C[C@@H]1C[C@@H]2c3cc(NC(=O)C4CCC4)ccc3O[C@@H]2[C@H](CO)O1)NC1CCCC1
i	C[C@H]1CN([C@@H](C)CO)C(=O)c2cc(NC(=O)Cc3ccccc3)ccc2O[C@H]1CN(C)C(=O)NC1CCCCC1
i	C[C@@H]1CCCCO[C@H](CN(C)C(=O)c2ccccc2)[C@H](C)CN([C@@H](C)CO)C(=O)c2cc(NS(=O)(=O)c3cccs3)ccc2O1
i	CO[C@H]1CN(C)C(=O)c2cccc(C#N)c2OC[C@H]2O[C@H](CC[C@H]2OC)CCN(C)C(=O)[C@H]1C
i	COc1ccc(S(=O)(=O)N(C)C[C@@H]2OCCCC[C@@H](C)Oc3ccc(NC(=O)c4ccccc4)cc3C(=O)N([C@@H](C)CO)C[C@H]2C)cc1
i	CN1C(=O)c2cc(NS(=O)(=O)c3ccc(Cl)cc3)ccc2OC[C@H]2O[C@H](CC(=O)N3CCc4ccccc4C3)CC[C@@H]21
i	C[C@H](CO)N1C[C@H](C)[C@H](CN(C)C(=O)c2cnccn2)Oc2cc(C3=CCCC3)ccc2S1(=O)=O
i	CC(C)C#Cc1cnc2c(c1)C(=O)N([C@H](C)CO)C[C@H](C)[C@H](CN(C)Cc1cccc(F)c1)O2
i	Cc1ccc(S(=O)(=O)N(C)C[C@H]2Oc3c(NC(=O)NC(C)C)cccc3C(=O)N([C@H](C)CO)C[C@H]2C)cc1
i	O=C(Nc1ccc(F)cc1)N[C@H]1CC[C@H](CCNS(=O)(=O)c2ccccc2F)O[C@H]1CO
i	C[C@@H]1CN([C@@H](C)CO)C(=O)c2cc(NC(=O)CCC(F)(F)F)ccc2O[C@H]1CN(C)Cc1ccc(C(=O)O)cc1
i	CCCNC(=O)N[C@@H]1C=C[C@H](CC(=O)NC2CCCCC2)O[C@H]1CO
i	COCC(=O)N1C[C@H](C)[C@H](OC)CN(C)C(=O)c2ccc(NS(C)(=O)=O)cc2OC[C@@H]1C
i	C=CC[C@]1(C(=O)NCC(O)CO)N=C(c2ccc(OCCCO)cc2)O[C@H]1c1ccccc1 (stereo partly drawn)
i	CNC[C@H]1Oc2c(NS(=O)(=O)c3ccc(F)cc3)cccc2C(=O)N([C@@H](C)CO)C[C@H]1C
i	CO[C@H]1CN(C)C(=O)c2cc(NC(=O)Nc3ccccc3)ccc2OC[C@@H](C)N(C(=O)CN(C)C)C[C@H]1C
i	CC(C)c1cn(CC[C@H]2CC[C@H](NS(=O)(=O)c3ccc(Cl)cc3)[C@H](CO)O2)nn1
i	C[C@@H]1CN([C@H](C)CO)C(=O)c2cccc(NS(=O)(=O)c3cccs3)c2O[C@H]1CN(C)C(=O)Nc1ccc2c(c1)OCO2
i	O=C(C[C@H]1C=C[C@@H](NC(=O)c2ccc(F)cc2)[C@@H](CO)O1)NCCc1ccncc1
i	CCC(=O)Nc1ccc2c(c1)OC[C@H](C)NC[C@@H](C)[C@H](OC)CN(C)C2=O
i	Cc1ccc(S(=O)(=O)N(C)C[C@H]2OCCCC[C@H](C)Oc3ccc(NC(=O)Nc4ccc5c(c4)OCO5)cc3C(=O)N([C@H](C)CO)C[C@H]2C)cc1

# Part of the list above in order of formula weight, lowest first.
FGF22 binding	Compound
i	CCCNC(=O)N[C@@H]1C=C[C@H](CC(=O)NC2CCCCC2)O[C@H]1CO
i	CCC(=O)Nc1ccc2c(c1)OC[C@H](C)NC[C@@H](C)[C@H](OC)CN(C)C2=O
i	Cc1ccc(S(=O)(=O)N(C)C[C@H]2Oc3c(NC(=O)NC(C)C)cccc3C(=O)N([C@H](C)CO)C[C@H]2C)cc1

# Additional entries follow.
FGF22 binding	Compound
i	C[C@@H]1CN([C@@H](C)CO)C(=O)c2ccccc2-c2ccccc2CO[C@H]1CN(C)C(=O)Oc1ccccc1
i	COc1ccc(-c2cnc3c(c2)C(=O)N([C@H](C)CO)C[C@H](C)[C@H](CN(C)S(=O)(=O)c2cn(C)cn2)O3)cc1
i	C[C@@H]1CN([C@@H](C)CO)C(=O)Cc2cc(NC(=O)Cc3cn(C)c4ccccc34)ccc2O[C@@H]1CN(C)CC1CCCCC1
i	C[C@@H]1CN([C@H](C)CO)C(=O)c2cc(NC(=O)C3CC3)ccc2O[C@@H]1CN(C)C(=O)NC1CCCCC1
i	C[C@H](CO)N1C[C@H](C)[C@H](CN(C)C(=O)Nc2ccc(C(F)(F)F)cc2)Oc2ccc(NC(=O)CCC(F)(F)F)cc2CC1=O
i	C[C@H]1CN([C@@H](C)CO)C(=O)Cc2cc(NS(C)(=O)=O)ccc2O[C@@H]1CN(C)C(=O)NC1CCCCC1
i	COc1cc(F)ccc1Oc1cccc2c1S(=O)(=O)N(C1CC1)C[C@@H](COCc1ccccc1)O2
i	COc1ccc2c3c(n(C)c2c1)[C@H](CO)N(S(C)(=O)=O)CC31CN(C(=O)Nc2cccc(F)c2)C1
i	C[C@@H]1CN([C@@H](C)CO)C(=O)c2cc(NS(=O)(=O)c3ccc(Cl)cc3)ccc2O[C@@H]1CN(C)Cc1ccc(C(=O)O)cc1
i	CCC(=O)N1CCCCN2[C@@H](CO)[C@H](c3ccc(-c4ccc(F)cc4)cc3)[C@@H]2C1

# Five records picked at random from those above, as already listed:
FGF22 binding	Compound
i	COc1ccc(-c2cnc3c(c2)C(=O)N([C@H](C)CO)C[C@H](C)[C@H](CN(C)S(=O)(=O)c2cn(C)cn2)O3)cc1
i	C[C@@H]1CN([C@@H](C)CO)C(=O)c2ccccc2-c2ccccc2CO[C@H]1CN(C)C(=O)Oc1ccccc1
i	C[C@@H]1CN([C@H](C)CO)C(=O)c2cc(NC(=O)C3CC3)ccc2O[C@@H]1CN(C)C(=O)NC1CCCCC1
i	CCC(=O)N1CCCCN2[C@@H](CO)[C@H](c3ccc(-c4ccc(F)cc4)cc3)[C@@H]2C1
i	C[C@@H]1CN([C@@H](C)CO)C(=O)c2cc(NS(=O)(=O)c3ccc(Cl)cc3)ccc2O[C@@H]1CN(C)Cc1ccc(C(=O)O)cc1

# Some of the entries so far, tab-delimited.
compound	FGF22 binding
C[C@@H]1CN([C@@H](C)CO)C(=O)Cc2cc(NC(=O)Cc3cn(C)c4ccccc34)ccc2O[C@@H]1CN(C)CC1CCCCC1	i
C[C@H]1CN([C@@H](C)CO)C(=O)Cc2cc(NS(C)(=O)=O)ccc2O[C@@H]1CN(C)C(=O)NC1CCCCC1	i
C[C@H](CO)N1C[C@H](C)[C@H](CN(C)C(=O)Nc2ccc(C(F)(F)F)cc2)Oc2ccc(NC(=O)CCC(F)(F)F)cc2CC1=O	i
